Screening data deposited in PubChem by several laboratories.
Vif TR-FRET: inhibitors of Vif binding to APOBEC3G peptide, primary screen, biochemical, TR-FRET, GST-Vif 1-94, biotin-A3G peptide, dose response retest (AID 1117319). TR-FRET GST-Vif / biotin-A3G peptide binding; higher % means a stronger effect; test concentration not given here; strong numbers were not always called active. inhibition, %, or IC50 in µM where a hit was titrated. 260,000 tested, 0.57% active;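 active means above the screen mean plus three standard deviations and confirmed in dose response; inconclusive means results disagree or hit not tested in dose response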;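 further: Vif residues 1-94 fused to GST binding biotinylated APOBEC3G peptide 110-148; 0% = full assay without inhibitor and 100% = GST in place of GST-Vif; retest series ran down from 100 µM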
HNF4A DNA FP: change in binding of human HNF4 alpha to DNA. P41235. HNF4a-FITC DNA binding, fluorescence polarization, 1 h. activity change, % at 10 µM. 360,000 tested, 0.3% active. AID 1224865; in the data active means activity change above about 30%, passing the limit was not always enough;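 further: controls were the assay level and a saturating level of protein; the project sought stronger binding though the title names inhibitors; some compounds called inactive have numbers as strong as hits; positive values seem to mean higher polarization but the record does not say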
Target sequence (P41235 whole entry, looked up): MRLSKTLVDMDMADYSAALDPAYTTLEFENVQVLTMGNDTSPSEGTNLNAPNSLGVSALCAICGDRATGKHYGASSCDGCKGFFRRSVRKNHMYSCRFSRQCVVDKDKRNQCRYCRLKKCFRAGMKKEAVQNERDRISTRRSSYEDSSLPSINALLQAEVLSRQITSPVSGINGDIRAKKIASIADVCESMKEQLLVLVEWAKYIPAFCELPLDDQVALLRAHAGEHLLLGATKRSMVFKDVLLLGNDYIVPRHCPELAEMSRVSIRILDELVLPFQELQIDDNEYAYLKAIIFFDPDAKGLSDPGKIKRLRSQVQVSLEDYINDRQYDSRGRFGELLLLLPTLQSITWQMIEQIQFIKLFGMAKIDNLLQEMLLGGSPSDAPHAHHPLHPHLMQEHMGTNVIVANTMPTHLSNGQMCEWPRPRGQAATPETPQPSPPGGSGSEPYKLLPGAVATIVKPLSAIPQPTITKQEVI
Beta2AR agonist: activates human beta-2 adrenergic receptor causing internalization. P07550. Am2.2-beta2AR cells, FAP receptor internalization, flow cytometry; reference of the scale not given here. response, % (concentration not given with the values). 340,000 tested, 0.43% active;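 active means response above a set limit, near 3 SD of response in nonfluorescent compounds, cut at about 42% in these data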;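 further: stock transfer was 100 nL into about 11 µL; a reference agonist was the positive control; negative values mostly stem from fluorescent compounds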
Target sequence (P07550 whole entry, looked up): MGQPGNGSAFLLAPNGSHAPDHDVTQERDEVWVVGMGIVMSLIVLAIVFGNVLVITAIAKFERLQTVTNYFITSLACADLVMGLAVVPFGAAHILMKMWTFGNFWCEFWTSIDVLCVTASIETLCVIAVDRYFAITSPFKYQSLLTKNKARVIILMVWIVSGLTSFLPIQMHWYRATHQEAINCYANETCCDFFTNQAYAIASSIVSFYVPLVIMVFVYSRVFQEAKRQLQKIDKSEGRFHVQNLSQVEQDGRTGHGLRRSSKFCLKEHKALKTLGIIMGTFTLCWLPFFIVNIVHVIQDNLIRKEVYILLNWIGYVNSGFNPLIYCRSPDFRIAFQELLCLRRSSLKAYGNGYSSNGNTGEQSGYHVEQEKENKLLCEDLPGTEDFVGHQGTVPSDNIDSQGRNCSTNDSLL
ALR H2O2 inh: human ALR oxidase inhibition via reduced H2O2. inhibition, % (concentration not given with the values). purified ALR, DTT oxidation, H2O2 HRP-luminol luminescence. AID 485317. 290,000 tested, 3.8% active. P55789;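 active means mean and each replicate at 75% or more; inconclusive means only one of the two met; inactive means neither met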;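 further: stock transfer was 7.5 nL into about 7.5 µL; 0% = neutral wells and 100% = wells with inactivated enzyme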
Target sequence (P55789 whole entry, looked up): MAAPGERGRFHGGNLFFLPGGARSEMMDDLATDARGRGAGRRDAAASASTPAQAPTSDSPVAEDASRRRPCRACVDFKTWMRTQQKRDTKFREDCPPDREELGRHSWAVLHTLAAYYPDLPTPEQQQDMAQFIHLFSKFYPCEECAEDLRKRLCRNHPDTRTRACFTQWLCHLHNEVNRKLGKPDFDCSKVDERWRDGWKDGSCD
LANA-H2A inh: blocks KSHV LANA binding to histone H2A/H2B. Q9QR71. cell-free LANA-H2A/H2B peptide, fluorescence polarization. inhibition, % (test concentration not listed). 320,000 tested, 0.6% active; in the data active means inhibition mostly above about 10%, no sharp cut-off; inactive means mostly below about 6.7%;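 further: stock transfer was 7.5 nL into about 10 µL; 0% = median of vehicle wells and 100% = median of positive control wells; one replicate is shown; the record names a cut of 25% in any replicate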
RanGTP-Impb inh: disruptors of Ran-importin-beta complex formation – biochemical, FRET, CFP-Ran, YFP-importin-beta, homogeneous, primary screen; 300,000 tested, 1.1% active; inhibition, % (concentration not given with the values); AID 2216; cell-free CFP-Ran/YFP-importin-beta FRET ratio;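 active means most replicates above 15%; inconclusive means exactly half above 15%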;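 further: 0% = DMSO wells and 100% = Ran loaded with GDP instead of GTP; wells of about 40 µL received 100 nL stock; the first replicate is given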
Calb FLC: C. albicans growth modulation with fluconazole; C. albicans CaCi-2 (fluconazole-resistant clinical isolate) + fluconazole, Alamar Blue growth, 48 h; growth inhibition, % (test concentration not listed); 300,000 tested, 0.57% active; AID 1979;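 active means most replicates above 75%; inconclusive means exactly half above 75%; inactive means most below 75%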;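 further: all wells also contain fluconazole at 8 µg/ml as a sub-toxic cotreatment; 0% = median of DMSO wells and 100% = median of geldanamycin control wells; wells of about 8 µL received 7.5 nL stock; the first replicate is given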
* = called active by the depositor; u = inconclusive; x = not tested or not shown; & = joins results of further samples.

SMILES	Vif TR-FRET	HNF4A DNA FP	Beta2AR agonist	ALR H2O2 inh	LANA-H2A inh	RanGTP-Impb inh	Calb FLC
O=C(COC(=O)/C=C/c1ccco1)Nc1ccc(F)cc1Cl	31%	-2.8	-3	68	6.8	-1.9	5
Nc1ccc2c(c1)OC1(CCCCC1)O2	10%	8.3	-4	x	x	-0.6	4
CC(=O)Cc1cc2cc([N+](=O)[O-])ccc2oc1=O	-5%	-3.1	-10	-3	1.3	-0.8	-10
O=C(c1ccc(C(F)(F)F)cc1)C1CCCN(C(=O)c2cnccn2)C1 (centres undefined)	0%	-0.8	3	x	-1.2	1.9	-14
Cc1cc(NC(=O)CCC(=O)N(CC(=O)NC2CCCC2)c2ccc(C)c(F)c2)no1	x	0.4	-2	-31	1.4	-2.0	3
COc1ccc2c(CC(=O)NCc3ccc4c(c3)OCO4)coc2c1	1%	0.3	7	-3	0.2	-1.4	-26
CCOc1ccc(CC(=O)Nc2nccs2)cc1OCC	x	3.5	3	-2	21*	-1.8	20
COc1ccc(NC(=O)N2CCCCC2)cc1	-3%	1.4	8	7	5.0	1.1	-11
CC1=C(C(=O)Nc2ccccc2C(=O)N2CCCCC2)SCCO1	-7%	1.4	-2	-8	0.3	2.9	-2
CC(C)Cn1c(=O)c2c(nc3n2CCCN3CCc2ccccc2)n(C)c1=O	7%	-7.0	0	10	-0.5	6.2	15
Cc1cc(C)n(CC(O)Cn2c3ccccc3c3ccccc32)c(=O)n1 (centres undefined)	5%	7.2	-4	-2	-0.7	0.6	u
CCOC(=O)c1sc(NC(=S)NC(=O)CC(C)C)cc1C	-5%	0.0	4	6	-2.4	-0.7	2
CCOc1cc(-c2nnc(NC(=O)c3ccco3)o2)cc(OCC)c1OCC	-6%	0.7	4	-4	-2.6	1.9	3
CCOC(=O)CCC(=O)OCC(=O)NC(C)C1CC2CCC1C2 (centres undefined)	7%	0.3	4	1	-3.7	6.9	-3
Cc1cccc(CN2CCCC(C(=O)Nc3ccc(-c4cscn4)cc3)C2)c1 (centres undefined)	x	0.1	-17	-16	12	-0.2	-40
O=C(CN1CCN(c2ncccn2)CC1)Nc1ccccc1C(F)(F)F	9%	2.1	-15	-6	1.0	7.4	4
N=C1S/C(=C\c2ccccc2)C(=O)N1c1ccc(F)cc1	x	-0.6	0	-4	0.9	u	3
CC(=O)c1sc2c(c1N)c(=O)[nH]c(=O)n2-c1ccccc1	-2%	-1.4	7	x	-3.0	-2.2	-1
O=C(Cc1ccc(Cl)cc1)NNS(=O)(=O)c1ccc([N+](=O)[O-])cc1	x	-3.6	-1	-3	2.9	0.7	4
COc1ccc(Cl)c2c1[nH]c1nc(SCc3cccnc3)nnc12	-2%	-0.7	0	-38	2.7	8.2	4
O=C(CSc1cccs1)Nc1cccc2ccccc12	x	2.5	0	x	x	3.4	27
CCN(C(=O)COC(=O)CNC(=O)C1CCCCC1)c1ccccc1	-4%	-2.7	-1	x	x	x	x
COCCNC(=O)c1onc(CSc2ccc(C)c(C)c2)c1C(=O)O	6%	0.8	7	90*	-2.3	-1.0	13
O=C(OCN1C(=O)c2ccccc2C1=O)/C(=C\c1ccco1)NC(=O)c1ccccc1	24%	0.5	-3	63	-0.9	-1.1	-18
CN1CCN(CC(=O)Nc2ccccc2Sc2ccccc2)CC1	4%	6.7	3	-8	0.4	-6.8	1

(more compounds)
SMILES	Vif TR-FRET	HNF4A DNA FP	Beta2AR agonist	ALR H2O2 inh	LANA-H2A inh	RanGTP-Impb inh	Calb FLC
O=[N+]([O-])c1ccc(-c2csc(N/N=C/c3cccnc3)n2)cc1	21%	-3.6	-4	-15	2.0	-1.1	5
COCCn1ccc2c(OCC(=O)Nc3cc(OC)ccc3OC)cccc2c1=O	1%	4.1	13	-7	-5.5	2.3	2
CC1(NC(=O)Cc2c(Cl)cccc2Cl)CCS(=O)(=O)C1 (centres undefined)	x	-2.8	-3	-1	-5.7	x	x
CCCCN(C)CCC(=O)Nc1ccc(F)c(F)c1	3%	0.5	-8	-34	-2.6	-0.4	2
COc1cccc(CC(=O)Nc2cc(S(=O)(=O)N3CCOCC3)ccc2OC)c1	5%	-1.0	8	x	x	x	x
Cc1cc2nc(/C=C/c3nc4cc(C)c(C)cc4[nH]3)[nH]c2cc1C	5%	25	7	2	-1.0	-17	-1
CON(C)c1nc(C2CCCCC2)c2cc(C)ccc2n1	x	1.1	4	-5	-1.7	-0.7	-20
CCc1ccc(-c2cn3nc(-c4ccccc4)cnc3n2)cc1	0%	-0.9	5	0	-2.9	21*	-4
CN(C)C(=O)Nc1ccccc1	-3%	-0.2	-4	-1	1.9	-2.6	5
Cc1ccccc1/C=C/C12NC(=O)CN1c1ccccc1C2(C)C (centres undefined)	4%	28	-3	-3	-1.5	3.3	6
O=C(Cn1cnc2ccccc2c1=O)c1cccs1	73%	-1.4	0	-1	-1.7	3.3	2
CCC(=C(c1ccc(OC)cc1)c1ccc(OC)cc1)c1cn(CC(O)CN(CCO)CCO)c2ccccc12 (centres undefined)	x	-4.6	10	11	-1.6	-1.4	-10
Cn1cc(S(=O)(=O)Nc2ccc(Br)cc2F)c(=O)n(C)c1=O	5%	1.4	-9	-4	4.2	9.8	-3
Cc1oc(-c2ccc(Cl)cc2)nc1CS(=O)CC(=O)NCCCN1CCOCC1 (centres undefined)	1%	-1.1	-1	99*	-3.1	-2.1	3
COc1ccc(CNC(=O)C(NS(=O)(=O)c2ccc3c(c2)CCCN3C(C)=O)C(C)C)cc1 (centres undefined)	u	-0.5	-5	-18	4.7	x	x
COc1cccc(CNn2cnnc2)c1O	5%	0.9	-3	85*	0.5	6.3	-5
COc1ccccc1-c1cc(C(=O)Nc2ccc(F)cc2F)no1	7%	-0.4	-1	-1	-5.9	-0.6	13
COc1ccc(-c2nc(N)n(C(=O)Cc3ccccc3)n2)cc1	-2%	-2.6	3	-2	4.3	4.2	x
N#CC(C#N)=c1ccc2c(c1)N1C3=C(CCCC3)CC3CCCCC31N=2 (centres undefined)	20%	46	6	-5	-2.7	5.4	28
CC(NC(=O)C1CCN(S(=O)(=O)c2ccccc2)CC1)c1ccccc1 (centres undefined)	x	-1.4	-4	0	-1.5	-2.6	-14
Cc1cnc(C(=O)Nc2cccc3ncccc23)cn1	-3%	-0.1	-4	-1	3.3	0.5	4
Cc1ccc(CN=C2NC(=O)C(CC(=O)NCCc3ccccc3)S2)cc1 (centres undefined)	-1%	2.4	2	-1	2.8	3.5	13
CC(C)(C)C(=O)Nc1ccc(Oc2ccc3c(c2)C(=O)N(c2ccc(O)cc2)C3=O)cc1	2%	-0.2	6	-2	-7.0	-2.5	29
CCCN1CCC(NC(=O)Nc2ccc(F)cc2F)CC1	2%	-5.7	4	4	-3.3	2.3	u
NNc1nc(-c2ccccc2)c2cc(Br)ccc2n1	1%	1.1	-4	-8	-7.2	-3.5	-4

Sorted by length of the SMILES (falling): some entries from above
SMILES	Vif TR-FRET	HNF4A DNA FP	Beta2AR agonist	ALR H2O2 inh	LANA-H2A inh	RanGTP-Impb inh	Calb FLC
O=[N+]([O-])c1ccc(-c2csc(N/N=C/c3cccnc3)n2)cc1	21%	-3.6	-4	-15	2.0	-1.1	5
COCCn1ccc2c(OCC(=O)Nc3cc(OC)ccc3OC)cccc2c1=O	1%	4.1	13	-7	-5.5	2.3	2
CN(C)C(=O)Nc1ccccc1	-3%	-0.2	-4	-1	1.9	-2.6	5

The list continues.
SMILES	Vif TR-FRET	HNF4A DNA FP	Beta2AR agonist	ALR H2O2 inh	LANA-H2A inh	RanGTP-Impb inh	Calb FLC
Cc1ccc(C)c(NC(=O)Cn2c(=O)n(-c3ccc(CC(=O)NCC4CCCO4)cc3)c(=O)c3ccccc32)c1 (centres undefined)	-11%	x	x	-5	1.9	0.1	u
O=C(CCNC(=O)c1ccccc1Cl)Nc1cccc(S(=O)(=O)N2CCCCC2)c1	-2%	0.4	-4	x	x	x	x
CC(C)N(C)C(=O)c1ccc(OC2CCN(CCc3ccccc3)CC2)cc1	20%	1.9	-17	x	0.4	5.0	-7
COc1cc(C)nc(OCCNC(=O)COc2ccc(Cl)cc2C)n1	-1%	-1.0	-12	-1	-0.2	1.2	-2
O=C(Nc1ccc2c(c1)OCO2)Nc1ccc(F)cc1F	x	-2.0	-6	-8	2.4	5.2	-2
CCC(C)NC(=S)N(CCc1ccccc1)Cc1cc2cc(OC)c(OC)cc2[nH]c1=O (centres undefined)	0%	2.9	-2	x	4.0	0.7	2
Cn1c(SCC(=O)N2CCCC2=O)nnc1-c1ccccc1F	-5%	2.7	-4	-4	2.6	5.4	7
NC(=O)c1ccc[n+](CC(=O)c2ccc(F)cc2)c1	3%	-3.7	5	-21	-0.6	-1.0	21
Cc1nn(CC(O)Cn2c3c(c4ccccc42)CCN(C)C3=O)c(C)c1Br (centres undefined)	0%&3%	3.3	4	5	-0.2	-1.7	12
Cc1cc(C)n2nc(SCc3cc(=O)oc4ccc5ccccc5c34)nc2n1	8%	0.1	7	-21	-1.7	1.7	5
Cc1ccc(/C=N/NC(=O)CNC(=O)c2ccc(C)c([N+](=O)[O-])c2)o1	-9%	-0.1	1	48	2.4	3.7	4
CC1=Nc2ccccc2/C1=C/c1c(N)n2c(S(=O)(=O)CC(C)C)nsc2nc1=O	x	-0.9	25	x	x	3.2	-2
CCCCNC(=S)Nc1ccc2nc(N3CCN(CC)CC3)cc(C)c2c1	-10%	3.0	-41	4	-1.8	-4.7	-15
COc1ccc(CCNC(=O)CCNC(=O)N2CC(=O)Nc3ccccc32)cc1OC	x	-0.1	4	0	-0.8	0.8	1
Oc1cccc2ccc(/C=C/c3ccccc3Br)nc12	x	2.8	8	-24	2.4	2.1	u
Cc1[nH]c2ccccc2c1C1=CN2CCS(=O)(=O)N=C2S1	3%	1.1	2	-15	1.8	-2.7	-6
Cc1cccc(-n2nnnc2SC(C)C(=O)NCCC2=CCCCC2)c1 (centres undefined)	25%	3.4	-9	-15	6.7	1.2	x
CCOc1ccc(C(C)=O)cc1CN1C(=O)NC2(CCCCC2C)C1=O (centres undefined)	23%	1.8	-10	3	7.4	-0.9	-31
CC1=C(n2nnc([N+](=O)[O-])n2)C(c2cccnc2)C(C#N)=C(N)O1 (centres undefined)	1%	-3.0	6	-13	7.3	2.2	34
COc1ccc(C(=O)CSc2nc3c(c(=O)n(C)c(=O)n3C)n2C)cc1	4%	x	x	-32	0.4	0.9	-24
COCCCNC(=O)CSc1nc2cc(C(=O)NCCOC)ccc2c(=O)n1Cc1ccc2c(c1)OCO2	x	-0.6	14	4	4.0	u	2
Cc1cc(-n2c(C)cc(C(=O)CSc3nc(N)cc(=O)[nH]3)c2C)no1	1%	0.8	-3	x	3.3	-2.1	-2
CC1CCN(c2c(NCC3CCC(C(=O)N4CCCCC4)CC3)c(=O)c2=O)CC1 (centres undefined)	14%	-0.9	-3	-13	-0.6	1.6	2
COc1ccc(OCC(=O)N2CCOCC2)cc1	-2%	4.4	7	-7	-2.1	-2.4	-6
COc1cc(-c2noc(C)c2C(=O)NCC[C@@H]2CCCN2C)cc(OC)c1OC	-2%	5.5	6	x	0.7	x	x
COc1ccc(CCC(=O)Nc2ccc(S(=O)(=O)Nc3nccc(C)n3)cc2)cc1	x	2.4	1	-2	-8.1	6.4	-2
Cc1ccc(-c2n[nH]c(=S)n2-c2ccccc2)cc1	x	1.8	0	14	1.8	-3.0	29
COc1cccc(C2c3[nH]c4ccccc4c3CCN2CCCn2cccn2)c1 (centres undefined)	17%	1.8	3	22	-3.6	-8.8	-19
CCCC(C)c1nnc(NC(=O)CCS(=O)(=O)Cc2ccccc2)s1 (centres undefined)	x	3.1	2	-5	6.1	-5.6	27

Single values from the entries so far:
ALR H2O2 inh result of COc1ccc(CCC(=O)Nc2ccc(S(=O)(=O)Nc3nccc(C)n3)cc2)cc1 reads -2
RanGTP-Impb inh result of O=C(Nc1ccc2c(c1)OCO2)Nc1ccc(F)cc1F reads 5.2
